2A firefly = Primary qHTS Assay for Foot and Mouth Disease Virus Antivirals against NCGC Sytravon and CBC Compound Libraries: Firefly Luciferase Signal. HEK cells with a luciferase reporter of 2A StopGo recoding. Potency, µM (series often up to 57.5 µM), for the others: at the highest dose signal change, negative = less light. hit rate 0.23% among 120,000. AID 1745856, 2022; active = well fitted falling curve with a large enough effect; inconclusive = small, poorly fitted or top-dose-only effect; inactive = no such curve, though single readings can be large or run the other way; further: nearly all actives have a fitted effect of over 60% in size; overnight with compound
StopGo RLuc = Primary qHTS Assay for Foot and Mouth Disease Virus Antivirals against NCGC Sytravon and CBC Compound Libraries: Renilla Luciferase Signal; HEK cells with a luciferase reporter of 2A StopGo recoding; Potency, µM (top dose mostly 57.5 µM), for the others: top-dose signal change, negative = less light; hit rate 0.32% among 120,000; active means well fitted falling curve with a large enough effect; inconclusive means small, poorly fitted or top-dose-only effect; inactive means no such curve, though single readings can be large or run the other way; further: nearly all actives have a fitted effect of over 55% in size; overnight with compound
The depositor's hits bear a star; ? = inconclusive; [ ] = remark or other dose. On the % scale 0 is the no-effect control and ±100 the full control effect; potency means the concentration at half of the fitted maximal effect.

SMILES | 2A firefly | StopGo RLuc
CCC(C)NC(=O)C1CCN(S(=O)(=O)c2ccc3c(c2)CCCN3C(C)=O)CC1 (stereo not given) | -3% | -7%
CCOC(=O)c1c(S(=O)(=O)N2CCC(C(=O)N3CCN(c4cc(C)ccc4C)CC3)CC2)c(C)n(C)c1C | -20% | -6%
Cc1ccc(O)c(C(=O)c2cc(C#N)c(=O)n(-c3ccccc3C(=O)O)c2)c1 | 20% | -4%
COc1cccc(Cn2cnc3c2c(=O)n(C)c(=O)n3C)c1 | ? | ?
CC(=O)NC(NC(C)=O)c1ccccn1 | 9% | 1%
CC(C)c1nc(NCCO)c(C#N)c2c1CCCC2 | ? | ?
CCN(Cc1ccc(C(=O)NC)cc1)Cc1ccco1 | 13% | -7%[1.06 µM]
Cc1cc2ccccc2n1CC(=O)NC1CCCCC1 | -12% | -10%
CCOC(=O)c1c(C)[nH]c(C)c1S(=O)(=O)N1CCC(C(=O)NCc2cccc(C)c2)CC1 | -9% | 15%
COC(=O)c1c(C)[nH]c(C(=O)C(C)OC(=O)c2ccc(F)cc2F)c1C (stereo not given) | 12% | 9%
Cc1cc(NC(=O)COc2c(Cl)cccc2Cl)n(C)n1 | 16% | 4%
Cc1ccc(/C=C(/C#N)c2ccc(C(F)(F)F)cn2)s1 | 172%[activator] | -5%[1.06 µM]
COc1ccc(C(=O)Nc2ccc3oc(-c4ccccc4C)nc3c2)cc1 | 8% | 0%
CCC(C)N(C(=S)Nc1cc(F)cc(F)c1)C1CCN(C(C)=O)CC1 (stereo not given) | 0% | 9%
Cc1ccc(C(=O)CSc2nc3ccccc3c(=O)[nH]2)cc1C | 60%[activator] | 1%
COC(=O)COc1ccc2c(=O)c(Oc3ccccc3Br)c(C)oc2c1 | -6% | -9%
CCN(CC)S(=O)(=O)c1ccc(N2CCCCS2(=O)=O)cc1 | 44%[activator] | -6%
Cc1ccc(C(=O)O)cc1NC(=O)c1nsc2ccccc12 | 10% | ?
O=C(CC1CCCC1)Nc1ccc2c(c1)-c1ccccc1C2 | 68%[activator] | 46%[activator]
COCCCNC(=O)CSc1c2c(nc3ccc(Cl)cc13)CCCC2 | 6% | 7%
O=C1CS(=O)(=O)C2(C(=O)N(Cc3ccccc3)c3ccccc32)N1c1ccc(F)c(Cl)c1 (stereo not given) | 0% | 0%
O=C(/C=C/c1cccc(Br)c1)c1ccc(O)c(CCCl)c1 | 115%[activator] | 21%
COCCn1c(SCc2cccc(Br)c2)nnc1-c1ccccc1 | 1% | 33%[activator]
CCN1CCN(CCCNC(=O)Cn2c(-c3cccs3)cc3cc(F)ccc32)CC1 | -19% | -25%
CCN1CCSc2ccc(C(=O)NCc3ccc(OC)cc3)cc21 | -10% | -1%
SMILES | 2A firefly | StopGo RLuc
N#Cc1nc(-c2ccc(COc3ccc(Cl)cc3)o2)oc1N1CCN(c2ccccc2)CC1 | -10% | -12%
O=C(NCc1ccc(S(=O)(=O)N2CCOCC2)cc1)c1ccc(SC(F)(F)F)cc1 | -18% | -27%
CCOc1ccccc1NS(=O)(=O)c1ccc2[nH]c3c(c2c1)CCCCC3 | -15% | 166%[activator]
CC(C)CCNc1nc2c(S(=O)(=O)c3ccc(Br)cc3)nnn2c2ccsc12 | 9% | -4%
NC(=O)CN1CCN(c2ccnc3c(F)ccc(F)c23)CC1 | 0% | -11%
COc1cc(NC(=O)C(Cc2ccccc2)NS(=O)(=O)c2cccc3nsnc23)cc(OC)c1 (stereo not given) | -22% | 110%[activator]
Cn1nc(C(=O)Nc2ccc(C(C)(C)C)cc2)c2ccccc2c1=O | 58%[activator] | 2%
Cc1ccc(CN2CCN(C3CCN(C(=O)c4ccccc4)CC3)C(=O)C2=O)cc1 | -14% | -15%
CC(C)(C)OC(=O)COC(=O)c1ccc(CCNS(C)(=O)=O)cc1 | -3% | -9%
CCN(Cc1ccccc1)S(=O)(=O)c1ccc(F)c(C(=O)Nc2ccc(C(C)C)cc2)c1 | 8% | -11%
CN1CCN(c2ccc(NC(=O)c3ccc(F)cc3Cl)nc2)CC1 | 0% | -10%
CC(C)Cc1nn2c(=O)cc(COC(=O)COc3ccccc3F)nc2s1 | -12% | -10%
O=C(CSc1nc(-c2ccc(F)cc2)cs1)NC1CCCCC1 | 28% | 2%
O=C(Nc1nc2c(s1)CCCC2)C1CC(=O)N(CC(F)(F)F)C1 (stereo not given) | 0% | 0%
O=C(NCCc1c[nH]c2ccccc12)c1cc2ccccc2[nH]1 | 58%[activator] | 0%
COc1cc(/C=C(/C#N)c2nc3ccccc3[nH]2)cc(OC)c1 | 252%[activator] | 6%
CC(C)c1noc(CN2CCN(CCOc3ccc(Cl)cc3)CC2)n1 | ? | ?
Cc1ccc(-n2cc(C(=O)OCc3ccc(Cl)cc3)c3ccccc3c2=O)cc1 | -25% | -8%
Cc1cc(C)c2c(c1C)OC/C2=N/O | 10% | -2%
O=C(CSc1nc2c([nH]c3ccccc32)c(=O)n1-c1ccccc1)Nc1ccc(Cl)c(Cl)c1 | -22% | -21%
COc1ccc(CNC(=O)CCc2cccnc2)cc1OC | 13% | 11%
Cc1cccc(NC(=O)c2ccc(C(=O)Nc3cccc(C)c3C)cc2)c1C | -1% | 0%
Cc1ccc(NC(=O)N(Cc2ccc3c(c2)OCO3)C2CCN(Cc3ccccc3)CC2)cc1C | 13% | 14%
N#Cc1c(N2CCN(CC(=O)Nc3ccc(Cl)cc3)CC2)nc(-c2ccco2)c2c1CCC2 | -16% | -19%
CCOC(=O)c1ccc(NC(=O)CN(Cc2ccc(C)cc2)S(=O)(=O)c2ccc(C)cc2)cc1 | -18% | -11%
SMILES | 2A firefly | StopGo RLuc
COc1ccc(NC(=O)NC2(C(F)(F)F)Oc3ccccc3O2)cc1 | 45%[activator] | 25%
COc1ccc(C(=O)Oc2ccccc2C(C)C)cc1Br | 17% | 15%
CCN(Cc1ccccc1)C(=O)CNC(=O)Cc1c[nH]c2ccccc12 | 13% | 6%
Cc1cc(=O)oc2c(C)c(OC(=O)CN3C(=O)NC4(CCCCC4)C3=O)ccc12 | -9% | -5%
CC(NC(=O)c1cc(-c2ccccn2)nc2ccccc12)c1ccccc1 (stereo not given) | -5% | -12%
O=C(O)CC(NC(=O)Cc1cccc(F)c1)c1ccc(F)cc1 (stereo not given) | 16% | 0%
CCNC(=O)CN1CCN(C(C(=O)O)c2cn(CC(=O)O)c3ccccc23)CC1 (stereo not given) | -11% | -15%
N#Cc1ccc(-n2cccc2C=O)cc1 | 6% | -15%
COc1ccc(Cn2c(C)c(CNCc3cc(OC)c(OC)c(OC)c3)c(C(=O)O)c2C)cc1 | 2% | 25%
CC(C)(C)c1ccc(O)cc1 | -11%[11.5 µM] | -11%
COc1ccc(C(=O)CC2(O)C(=O)Nc3c(C)cccc32)c(OC)c1OC (stereo not given) | -9% | 14%
C[N+]1(Cc2cccc(F)c2)CCN(/C=C/C(=O)C(F)(F)F)CC1 | -1% | 0%
COc1ccc(C(=O)C(C)OC(=O)c2ccc(OCC(N)=O)cc2)cc1 (stereo not given) | 2% | 2%
CN1CCN(C(=O)c2cnn(-c3cccc(F)c3)c2C2CCN(C(=O)OC(C)(C)C)CC2)CC1 | -26% | -19%
CCOc1ccc(OCC)c(N)c1 | -10% | -15%
N#Cc1nc(COc2ccc3c(c2)OCO3)oc1N1CCCC1 | 53%[activator] | 6%
CC(C)c1ccc(NC(=O)C(C)N2CCN(C(=O)c3ccco3)CC2)cc1 (stereo not given) | 0% | -5%
CCCN1CCCc2cc(CN(CCCN3CCOCC3)C(=O)Nc3ccc(OCC)cc3)ccc21 | -13% | -11%
COc1cccc(C2c3c(oc4ccc(C)cc4c3=O)C(=O)N2CCCN2CCOCC2)c1OC (stereo not given) | 0% | 46%[activator]
Cc1ccc([N+](=O)[O-])c(NC(=O)COc2ncnc3ccccc23)c1C | 17% | 2%
CC(C)Oc1ccc(Br)cc1/C=C(\C#N)c1nc2ccccc2[nH]1 | 18% | -22%
Cc1oc(-c2ccc(C(=O)NCc3ccc(F)cc3)cc2)nc1CS(=O)c1ccccc1 (stereo not given) | ? | ?
CC(C)(O)C#Cc1ccccc1C(=O)NC(CC(=O)O)c1ccccc1 (stereo not given) | 70%[activator] | 15%
COc1ccc(CNC(=O)CN(c2ccc(C)cc2)S(=O)(=O)c2c(C)n[nH]c2C)cc1 | 50%[activator] | 76%[activator]
CCCCCN1CCN(c2nc3c(c(=O)[nH]c(=O)n3C)n2Cc2ccc(Cl)cc2)CC1 | -14% | -13%
SMILES | 2A firefly | StopGo RLuc
COC(=O)c1cccc(COC(=O)c2ccc3c(c2)OCCCO3)c1 | 156%[activator] | 0%
CCC(CC)C(=O)Nc1cccc(F)c1 | -6% | -7%
CC(C)(C)OC(=O)N1CCCC1C(=O)NCc1ccc(Cl)cc1Cl (stereo not given) | -8% | 2%
O=C(CSc1ncc(-c2ccc(Cl)cc2)o1)Nc1cccc(F)c1 | 3% | -9%
CCOc1ccc(/C=C(/C#N)C(=O)c2c[nH]c3cc(F)ccc23)cc1 | -16% | -6%
C=C1C(C(=O)Nc2cccc(SC)c2)C1C(=O)Nc1cccc(SC)c1 (stereo not given) | 2% | 9%
CCc1cccc(NS(=O)(=O)c2cc(/C=C\c3onc(C)c3NC(C)=O)ccc2C)c1 | ? | 66%[activator]
COc1ccc(N(Cc2cc3cccc(C)c3[nH]c2=O)S(C)(=O)=O)cc1 | 10% | 7%
O=C(CN1CCN(c2ccccc2O)CC1)Nc1nc(-c2ccc(F)c(F)c2)cs1 | -3% | -7%
CCOc1ccc(C2C(C(N)=O)=C(C)Nc3nc(SCc4ccccc4F)nn32)cc1 (stereo not given) | 5% | -3%
N#Cc1ccccc1CSc1nnc(-c2ccc(Br)cc2)o1 | 243%[activator] | -5%
Cc1cc2oc(=O)cc(CN3CCN(C)CC3)c2cc1O | 5% | -9%
COc1ccc(NC(=O)c2oc3ccccc3c2NC(=O)COc2ccc(C(C)C)cc2)c(OC)c1 | -24% | -14%

Ordered by SMILES length (smallest number first): four of the compounds above.
SMILES | 2A firefly | StopGo RLuc
N#Cc1ccccc1CSc1nnc(-c2ccc(Br)cc2)o1 | 243%[activator] | -5%
COC(=O)c1cccc(COC(=O)c2ccc3c(c2)OCCCO3)c1 | 156%[activator] | 0%
CC(C)(C)OC(=O)N1CCCC1C(=O)NCc1ccc(Cl)cc1Cl (stereo not given) | -8% | 2%
CCOc1ccc(/C=C(/C#N)C(=O)c2c[nH]c3cc(F)ccc23)cc1 | -16% | -6%

In the list so far, 13 contain an NH in an aromatic ring:
SMILES | 2A firefly | StopGo RLuc
CCOC(=O)c1c(C)[nH]c(C)c1S(=O)(=O)N1CCC(C(=O)NCc2cccc(C)c2)CC1 | -9% | 15%
COC(=O)c1c(C)[nH]c(C(=O)C(C)OC(=O)c2ccc(F)cc2F)c1C (stereo not given) | 12% | 9%
Cc1ccc(C(=O)CSc2nc3ccccc3c(=O)[nH]2)cc1C | 60%[activator] | 1%
CCOc1ccccc1NS(=O)(=O)c1ccc2[nH]c3c(c2c1)CCCCC3 | -15% | 166%[activator]
O=C(NCCc1c[nH]c2ccccc12)c1cc2ccccc2[nH]1 | 58%[activator] | 0%
COc1cc(/C=C(/C#N)c2nc3ccccc3[nH]2)cc(OC)c1 | 252%[activator] | 6%
O=C(CSc1nc2c([nH]c3ccccc32)c(=O)n1-c1ccccc1)Nc1ccc(Cl)c(Cl)c1 | -22% | -21%
CCN(Cc1ccccc1)C(=O)CNC(=O)Cc1c[nH]c2ccccc12 | 13% | 6%
CC(C)Oc1ccc(Br)cc1/C=C(\C#N)c1nc2ccccc2[nH]1 | 18% | -22%
COc1ccc(CNC(=O)CN(c2ccc(C)cc2)S(=O)(=O)c2c(C)n[nH]c2C)cc1 | 50%[activator] | 76%[activator]
CCCCCN1CCN(c2nc3c(c(=O)[nH]c(=O)n3C)n2Cc2ccc(Cl)cc2)CC1 | -14% | -13%
CCOc1ccc(/C=C(/C#N)C(=O)c2c[nH]c3cc(F)ccc23)cc1 | -16% | -6%
COc1ccc(N(Cc2cc3cccc(C)c3[nH]c2=O)S(C)(=O)=O)cc1 | 10% | 7%

Bioassay records: PubChem, National Center for Advancing Translational Sciences (NCATS)

The list is partial, so the mix of outcomes need not match the whole.
